Ecoli growth: E. coli growth inhibition; Escherichia coli growth, OD600, 23 h; stronger effect = lower value; OD600 absorbance (concentration not given with the values); 330,000 tested, 0.21% active; AID 1053175;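 active means OD600 absorbance below the run mean of sample wells minus 3.6 SD, in any replicate, cut at about 0.56 in these data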;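 further: stock transfer was 300 nL into about 60 µL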
UCH37 DUB inh: inhibitors of human deubiquitinating enzyme UCH37; AID 588478; inhibition, % (concentration not given with the values); purified proteasome/UCH37, Ub-AMC cleavage fluorescence; 330,000 tested, 0.33% active;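 active means mean of two replicates above 20%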;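 further: 0% = compound-free wells with enzyme and 100% = wells lacking proteasome; stock transfer was 100 nL into about 20 µL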
Target sequence (Q9Y5K5 whole entry, looked up): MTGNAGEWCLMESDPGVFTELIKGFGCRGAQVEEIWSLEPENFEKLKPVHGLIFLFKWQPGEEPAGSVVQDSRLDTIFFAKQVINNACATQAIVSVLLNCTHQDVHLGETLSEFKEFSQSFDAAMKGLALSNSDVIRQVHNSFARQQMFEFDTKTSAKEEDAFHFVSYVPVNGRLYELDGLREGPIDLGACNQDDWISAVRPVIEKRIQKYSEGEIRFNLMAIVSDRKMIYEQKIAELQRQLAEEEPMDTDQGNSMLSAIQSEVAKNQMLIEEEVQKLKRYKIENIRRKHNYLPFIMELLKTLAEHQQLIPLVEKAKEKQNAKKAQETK
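system = Proteasome-associated human UCH37 deubiquitinase | amount = 0.15 nM proteasome as dispensed | medium = pH 7.4 Tris-HCl (50 mM) with ovalbumin, ATP-MgCl2, DTT | incubation = 30 min preincubation with enzyme, 25 min cleavage at room temperature | detection = AMC fluorescence 355/460 nm | read-out basis = percent inhibition | controls = no-proteasome and no-compound wells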
Bfl-1 A1 inh: inhibitors of the anti-apoptotic protein A1, read as caspase activation; MEF A1-2A-BIM cells, Caspase-Glo 3/7 luminescence, 3 h; percent of clofoctol response, vehicle zero; caspase activation, % (test concentration not listed); 330,000 tested, 0.066% active; AID 2462;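 active means over half of replicate activation scores above 10%, or exactly half above 10 with the replicate mean above 10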;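 further: wells of about 30 µL received 50 nL stock; many hits fall short of the cut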
FGF22 binding: shifts melting point of recombinant human FGF22; AID 651658; 340,000 tested, 1.5% active; calls only at 9.99 µM; Q9HCT0; recombinant FGF22 thermal shift, SYPRO orange fluorescence; percent of sucrose octasulfate shift, DMSO zero;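 active means melting point raised past a set limit in the mean and every replicate; three in four hits are not shown here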
Target sequence (Q9HCT0 whole entry, looked up): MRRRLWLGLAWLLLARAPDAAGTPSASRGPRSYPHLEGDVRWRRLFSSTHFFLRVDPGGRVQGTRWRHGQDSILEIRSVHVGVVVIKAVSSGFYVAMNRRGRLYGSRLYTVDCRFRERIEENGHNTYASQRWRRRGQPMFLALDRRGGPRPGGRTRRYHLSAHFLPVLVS
Beta cell apopt: beta cell apoptosis inhibition | INS-1E cytokine-induced death, ATP luminescence, 48 h; percent of positive-control rescue, neutral wells zero | 300,000 tested, 0.8% active | protection from apoptosis, % (concentration not given with the values);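 active means all replicates at 75% or more, or half of them and the mean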;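 further: 0% = cytokine-treated negative control wells and 100% = positive control rescue; higher means more ATP so stronger rescue from cytokine killing; wells of about 40 µL received 100 nL stock; the first replicate is given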
Ecoli rRNA inh: inhibits bacterial ribosomal RNA function over humanized ribosomes; E. coli WT GFP vs humanized-ribosome RFP mutants, fluorescence, 24 h; stronger effect = lower value; DMSO median 0, no signal -100; GFP signal change (wild-type ribosome), % (test concentration not listed); 350,000 tested, 1.6% active;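 active means significant combined selectivity score with lowered wild-type GFP, culture density cut under 30%, mutant RFP and density less affected; inactive means any of these conditions unmet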; further: one replicate is shown; some compounds called inactive have numbers as strong as hits
T cruzi inh: T. cruzi replication inhibition; T. cruzi beta-gal in NIH3T3, luminescence, 90 h; inhibition, % (test concentration not listed); 300,000 tested, 1.4% active;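 active means mean inhibition across valid replicates above about 55%, limit read from the data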;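 further: signal also drops with host cell toxicity which is not excluded here; 0% = plate median of DMSO wells and 100% = zero luminescence signal; higher percent means less beta-gal luminescence so fewer parasites; stock transfer was 50 nL into about 50 µL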
MLL AF4-AF9 inh: MLL-AF4/AF9 protein interaction inhibition | AlphaScreen, biotin-AF4 peptide binding to FLAG-AF9 | inhibition, % at 10 µM | P42568 | AID 651704 | 350,000 tested, 0.47% active;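 active means every replicate reaching a set inhibition limit, whatever the replicate mean, cut at about 25% in these data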;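 further: 0% = plate neutral control median and 100% = total signal loss; the record names both 10 and 1 µM as test concentration; the first replicate is given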
Target sequence (P42568 whole entry, looked up): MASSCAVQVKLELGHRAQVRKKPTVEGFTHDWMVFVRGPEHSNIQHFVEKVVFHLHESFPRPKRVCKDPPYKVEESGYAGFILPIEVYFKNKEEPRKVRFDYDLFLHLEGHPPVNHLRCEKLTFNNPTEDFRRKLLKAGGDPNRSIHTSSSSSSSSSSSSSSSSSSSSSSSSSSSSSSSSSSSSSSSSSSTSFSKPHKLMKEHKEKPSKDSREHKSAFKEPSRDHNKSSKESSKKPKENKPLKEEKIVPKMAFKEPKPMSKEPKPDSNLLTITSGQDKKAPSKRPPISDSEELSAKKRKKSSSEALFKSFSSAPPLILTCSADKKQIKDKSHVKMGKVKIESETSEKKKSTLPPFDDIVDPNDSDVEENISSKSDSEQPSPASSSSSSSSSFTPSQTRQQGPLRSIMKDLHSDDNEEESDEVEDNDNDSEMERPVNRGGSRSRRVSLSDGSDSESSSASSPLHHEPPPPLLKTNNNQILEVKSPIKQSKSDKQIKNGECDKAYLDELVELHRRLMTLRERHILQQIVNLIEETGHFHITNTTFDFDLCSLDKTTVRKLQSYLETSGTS
Ecoli rRNA inh OD600: further read-out of Ecoli rRNA inh, marked with its call; OD600 change, %; measured here: OD600 growth;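 optical density of the mix in the first replicate; 0 = DMSO median and -100 = no signal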
Ecoli rRNA inh RFP: also measured in Ecoli rRNA inh; calls as there; RFP signal change, %; measured here: RFP humanized mutant strains;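 first replicate; 0 = DMSO median and -100 = no signal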
Starred values were filed as active, the others as inactive; i = inactive; x = no result given; + = active, no number. These rows are one share of the data; count on the stated rates, not on these rows.

SMILES	Ecoli growth	UCH37 DUB inh	Bfl-1 A1 inh	FGF22 binding	Beta cell apopt	Ecoli rRNA inh	Ecoli rRNA inh OD600	Ecoli rRNA inh RFP	T cruzi inh	MLL AF4-AF9 inh
O=C(CN(C(=O)CCC(=O)Nc1nccs1)c1cccc(F)c1)NCCc1ccccc1	0.7	-0.3	-0.3	i	0	4	9	0.7	5	-0.4
N#C/C(=C\c1ccccc1OCc1ccc(C(=O)O)cc1)C(=O)Nc1ccc(O)cc1	0.68	3.9	0.5	i	2	-15	-11	1.6	-3	-0.8
Cc1cccc(NC(=O)CN2CCN(C(=O)c3cccc(-n4cnnn4)c3)CC2)c1C	0.71	-2.7	1.3	i	1	17	6	-0.7	x	-1.4
CCC(C(=O)NC1CCCC1)N(Cc1ccc2c(c1)OCO2)C(=O)c1snc(C(N)=O)c1N (centres undefined)	0.68	-10	0.8	i	-3	-24	-16	21	8	8.5
CN1CCC(N(C)S(=O)(=O)c2ccc(NC(=O)Cc3ccc(F)cc3)cc2)CC1	0.64	1.2	x	i	x	x	x	x	x	2.3
O=C(c1ccco1)N1CCN(c2ccc([N+](=O)[O-])cc2F)CC1	0.7	8.0	1.2	i	-5	-6	6	4.9	-11	-1.2
CCN1CCCc2cc(CN(CCN3CCOCC3)C(=S)Nc3ccc(OC)c(Cl)c3)ccc21	x	x	-0.5	i	-1	1	-1	7.0	59*	11
COc1cccc(NC(=O)c2cc3ccccc3oc2=O)c1	0.7	6.0	-7.4	i	19	2	6	-1.6	-5	-2.4
CCOC(=O)c1sc2nc(C)cc(C)c2c1N	0.63	-262	1.0	x	0	x	x	x	14	x
O=C(COc1ccc2ccccc2c1)NNC(=O)Cc1cccc2ccccc12	0.78	5.5	0.0	x	-4	x	x	x	-6	x
Cc1ccccc1COC(=O)c1nn(-c2ccccc2)nc1N	0.68	-85	0.7	i	1	-12	-15	-2.4	-7	-1.8
Nc1nnc(Cc2ccccc2F)s1	0.67	2.0	1.4	i	x	29	24	1.9	-22	-2.8
CCCC(=O)N(Cc1cc(=O)[nH]c2ccccc12)c1ccc(OC)cc1	0.64	6.2	1.1	i	3	-1	-3	-1.2	9	0.5
CC(C)CNc1nc(SCC(=O)Nc2ccccc2)nc(N2CCOCC2)n1	0.73	2.3	1.2	i	-4	3	-10	-3.0	2	-0.9
OC(COC(c1ccc(Cl)cc1)c1ccc(Cl)cc1)CN1CCCC1 (centres undefined)	0.69	2.4	0.1	x	2	x	x	x	1	x
O=c1c(-c2nc3ccccc3s2)cccn1Cc1ccc(Cl)cc1	0.7	-321	0.7	x	6	x	x	x	2	x
CSc1nc2ccccc2n1CC(=O)Nc1c(C)cccc1C	0.67	3.6	-0.9	x	2	x	x	x	-7	x
COc1ccc(CCNC(=O)c2ccc3ccccc3n2)cc1	0.66	-0.4	-0.8	i	-3	-20	-20	1.8	-5	-0.5
CN(Cc1ccc(F)cc1)C(=O)CNC(=O)c1ccc2c(c1)OCO2	0.71	3.4	-0.2	i	4	6	13	3.6	-18	-1.7
Cc1nc(CCNS(=O)(=O)c2cccnc2)cs1	0.71	0.6	0.1	i	-1	-14	-8	-3.1	-36	6.5
COc1cc(C(CCN2CCOCC2)c2c(OC)cc(OC)c3c2OC(=O)CC3c2ccc(N(C)C)cc2)cc(OC)c1OC (centres undefined)	0.68	5.0	-0.6	i	1	-9	-9	13	-3	49*
O=C(COc1cccc(Cl)c1)NCC(c1cccs1)N1CCOCC1 (centres undefined)	0.68	-0.6	-1.7	+	1	-3	-7	4.1	x	2.0
COc1ccc(S(=O)(=O)NCCCN2CCOCC2)c2ccccc12	0.71	3.2	0.9	x	0	x	x	x	7	x
CCOC(=O)C1C(=O)CC(C)(O)C(C(=O)OCC)C1c1ccccc1 (centres undefined)	0.73	3.0	-0.6	x	-3	x	x	x	3	x
Cc1ccc(NC(=O)Cc2n[nH]c(=O)c3ccccc23)cc1S(=O)(=O)N1CCCCCC1	0.66	4.4	-0.3	i	-13	-25	-55	9.0	x	-0.1
Cn1cccc1-c1cc(C(=O)N2CCc3c([nH]c4ccccc34)C2c2ccccn2)[nH]n1 (centres undefined)	0.67	0.7	0.3	i	1	9	13	3.2	30	15
Cc1ccc(-c2nc3nc4ccccc4nc3n2Cc2ccco2)cc1	0.71	-53	-4.5	x	6	x	x	x	5	x
CC(C)Oc1ccc(C(=O)NCC(=O)N2CCN(S(=O)(=O)/C=C/c3ccccc3)CC2)cc1	0.7	1.4	x	i	x	2	-1	-2.7	x	1.1
CCCCCCc1ccc(-c2ncc(N)cn2)cc1	0.66	-0.9	0.1	x	-1	x	x	x	40	x
COc1cc(/C=C/C(=O)OCC(=O)Nc2ccc(NC(C)=O)cc2)cc(S(=O)(=O)N2CCc3ccccc32)c1OC	0.69	4.8	-1.0	i	4	-15	-15	1.6	1	3.7
[O-][n+]1onc2c3cc(-c4ccccc4)nnc3ccc21	0.71	2.5	-8.7	x	8	x	x	x	0	x
O=C(CSc1nc(O)cc(=O)n1-c1ccccc1)Nc1ccccn1	0.66	2.6	0.1	i	2	11	13	-1.7	-11	-0.2
CN(c1ccccc1)S(=O)(=O)c1ccc(Cl)c(C(=O)OCC(=O)c2c(N)n(C)c(=O)n(C)c2=O)c1	0.67	2.7	x	i	x	-21*	-16*	-0.8*	x	3.1
O=C(O)/C=C\C(=O)Nc1ccc(N2CCN(c3ccc(F)cc3)CC2)cc1	0.68	1.7	-0.5	i	x	-3	11	17	-3	-1.5
Cc1cc(NC(=O)c2ccc(F)cc2F)n(-c2nc3ccccc3[nH]2)n1	0.72	-26	-0.3	i	16	13	19	1.2	-9	-9.1
O=C(CSc1ccc2nnc(-c3ccc(Cl)cc3)n2n1)N1CCCc2ccccc21	0.75	-9.5	-0.3	x	45	x	x	x	5	x
COc1cccc(-c2nc(CS(=O)(=O)CC(=O)NCc3ccccc3OC)c(C)o2)c1	0.75	1.4	0.6	i	-2	-11	-31	-1.8	-17	-6.8
O=C1c2oc3ccccc3c(=O)c2C(c2ccccn2)N1Cc1ccccc1 (centres undefined)	0.74	3.3	0.0	x	x	x	x	x	1	x
COc1ccc(/C=C2\Oc3cc(OCC(=O)N4CCC[C@H]4C(=O)O)ccc3C2=O)c(OC)c1	0.76	3.3	0.0	x	x	x	x	x	-8	x
CC(=O)NCc1nc2ccccc2n1Cc1ccccc1F	0.72	3.0	0.4	x	x	x	x	x	-7	x
c1ccc(OCc2nnc3n2N=C(c2ccccc2)CS3)cc1	0.67	4.7	-1.8	i	-1	-26	-26	-1.8	2	-15
O=C(COC(=O)[C@H](Cc1ccccc1)NC(=O)c1cccs1)NC1CC1	0.72	1.7	-0.2	x	-9	x	x	x	-20	x
Cc1ccc(Cn2nnc3c(=O)n(CC(=O)NCc4ccco4)cnc32)cc1	0.65	1.6	1.0	i	2	0	-1	0.4	-22	-7.3
Cc1cc(C)c(NC(=O)C(C)N2CCCCCC2)c(C)c1 (centres undefined)	0.68	-0.5	0.3	i	-4	3	8	-2.4	9	-3.1
O=C(COC(=O)c1ccccc1SCC(=O)N1CCCC1)Nc1ccccc1C(F)(F)F	0.68	3.0	0.7	i	-6	-11	-9	-2.8	-1	-1.8
CC(=O)Cc1cc(O)c2ccccc2c1OC(=O)c1ccccc1	0.67	3.6	0.6	i	x	10	-44	9.1	-10	0.9
O=C(Nc1nnc(-c2ccccc2Cl)o1)c1nc2ccccc2s1	0.71	-136	-0.5	i	-3	-57	-76	-17	-2	1.4
CCOC(=O)c1cc(C#N)c(SC)nc1-c1ccccc1	0.74	-0.2	0.0	x	4	x	x	x	9	x
COc1ccc(Br)cc1/C=N/NC(=O)CN1CCN(Cc2ccccc2)CC1	x	x	1.0	i	3	4	5	2.9	5	6.9
CC(Sc1nnc(COc2ccccc2)n1Cc1ccccc1)C(=O)O (centres undefined)	0.66	2.2	-0.5	i	-3	-2	-7	0.5	1	-2.8
CCOC(=O)c1cc(C)[nH]c1C	0.67	1.3	0.2	i	0	1	7	-1.1	-18	-0.8
Cc1ccc(/C=N\NC(=O)c2ccc3c(c2)OCO3)o1	x	x	-0.6	i	0	2	8	-0.6	19	-0.8
COc1cccc(CNC(=O)CCCn2ccc3cc(S(=O)(=O)N4CCCC4)ccc32)c1	0.71	-0.8	0.1	i	4	-6	-12	8.6	-3	-0.9
CCOC(=O)c1ccc(Cn2c(-c3ccccc3)nnc2-c2ccccc2)o1	0.74	0.0	-0.2	x	x	x	x	x	26	x
COc1ccc(NC(C)=O)cc1NC(=O)CN1CCN(C(=O)c2ccco2)CC1	0.65	4.8	0.6	x	-9	x	x	x	-6	x
O=C(COC(=O)c1cc[n+]([O-])cc1)NCc1ccccc1Cl	0.67	-1.0	-0.1	i	-2	-6	-3	1.3	-4	0.2
COc1ccc(/C=N/NC(=O)c2[nH]c3ccc(Cl)cc3c2-c2ccccc2)c(C(=O)O)c1OC	x	x	1.2	i	12	-6	-13	2.4	-2	-6.6
CC(=O)c1ccc(NC(=O)c2cn(-c3ccccc3)nc2-c2ccncc2)cc1	0.76	-0.3	0.5	x	1	x	x	x	26	x
NC(=O)C1(N2CCCCC2)CCN(Cc2ccccc2Cl)CC1	0.67	3.0	0.2	x	-1	x	x	x	0	x
Cc1ccc(NC(NC(=O)c2ccccn2)C(Cl)(Cl)Cl)cc1 (centres undefined)	0.7	0.6	1.6	x	5	x	x	x	12	x
(further entries)
SMILES	Ecoli growth	UCH37 DUB inh	Bfl-1 A1 inh	FGF22 binding	Beta cell apopt	Ecoli rRNA inh	Ecoli rRNA inh OD600	Ecoli rRNA inh RFP	T cruzi inh	MLL AF4-AF9 inh
CCOP1(=O)C=C(C(C)(C)C)OC1c1ccc(F)cc1 (centres undefined)	0.66	-1.7	0.1	x	-10	x	x	x	-4	x
CC(C)NC(=O)C(=O)NC1CCCCCC1	0.79	4.5	-0.7	x	x	x	x	x	-8	x
CCOC(=O)C(C(=O)N(C)Cc1ccccc1)C1CCCCC1 (centres undefined)	0.7	3.0	0.3	i	x	-1	-7	2.2	-13	-13
Cc1ccc(-c2nn(-c3ccccc3)cc2C(=O)O)o1	0.66	-5.6	0.0	x	4	x	x	x	-3	x
Fc1ccc2nc3n(c2c1F)CCCCCC3	0.64	0.3	0.7	i	-5	-18	-8	-0.1	3	1.7
Cc1cccc(NC(=O)C2CCCN(C(=O)NCc3ccccc3)C2)c1C (centres undefined)	0.68	5.0	-0.3	i	0	-3	-2	-0.9	-2	-1.6
CCCn1c(=O)c2[nH]cnc2n(-c2ccccc2C)c1=O	0.68	7.0	-1.1	i	-2	22	14	2.0	-24	-4.2
O=C(N1CCC(O)(c2cccnc2)CC1)C12CC3CC(CC(C3)C1)C2	0.72	-2.0	-0.9	x	-3	x	x	x	-13	x

3 entries already listed, sorted by formula weight, low to high.
SMILES	Ecoli growth	UCH37 DUB inh	Bfl-1 A1 inh	FGF22 binding	Beta cell apopt	Ecoli rRNA inh	Ecoli rRNA inh OD600	Ecoli rRNA inh RFP	T cruzi inh	MLL AF4-AF9 inh
CC(C)NC(=O)C(=O)NC1CCCCCC1	0.79	4.5	-0.7	x	x	x	x	x	-8	x
Fc1ccc2nc3n(c2c1F)CCCCCC3	0.64	0.3	0.7	i	-5	-18	-8	-0.1	3	1.7
O=C(N1CCC(O)(c2cccnc2)CC1)C12CC3CC(CC(C3)C1)C2	0.72	-2.0	-0.9	x	-3	x	x	x	-13	x

Screens (PubChem BioAssay)
